# Screening results deposited in PubChem BioAssay by several laboratories.
# Calb FLC: C. albicans growth inhibition with fluconazole, primary screen, CaCi-2 strain, Alamar Blue fluorescence | AID 1979, 2009 | hit rate 0.57% among 300,000 | C. albicans CaCi-2 (fluconazole-resistant clinical isolate) + fluconazole, 48 h | growth inhibition, % (concentration not given with the values);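 active = most replicates above 75%; inconclusive = exactly half above 75%; inactive = most below 75%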;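 also: all wells also contain fluconazole at 8 µg/ml as a sub-toxic cotreatment; 0% = median of DMSO wells and 100% = median of geldanamycin control wells; wells of about 8 µL received 7.5 nL stock; the first replicate is given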
# RanGTP-Impb inh: inhibitors of RanGTP-importin-beta interaction, primary screen, biochemical, FRET, CFP-Ran, YFP-importin-beta, homogeneous. cell-free CFP-Ran/YFP-importin-beta FRET ratio. Ran GTPase (GTP-bound) - importin-beta complex. AID 2216, 2009. inhibition, % (no concentration beside the values). hit rate 1.1% among 300,000;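 active = most replicates above 15%; inconclusive = exactly half above 15%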;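 also: 0% = DMSO wells and 100% = Ran loaded with GDP instead of GTP; wells of about 40 µL received 100 nL stock; the first replicate is given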
# LANA-H2B inh: blockers of LANA interaction with H2A/H2B – biochemical, FP readout, HTS, primary screen. Protein LANA1 (Human herpesvirus 8 type P (isolate GK18)), Q9QR71. cell-free LANA-H2A/H2B peptide, fluorescence polarization. inhibition, % (no concentration beside the values). hit rate 0.6% among 320,000; in the data active = inhibition mostly above about 10%, no sharp cut-off; inactive = mostly below about 6.7%;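 also: stock transfer was 7.5 nL into about 10 µL; 0% = median of vehicle wells and 100% = median of positive control wells; one replicate is shown; the record names a cut of 25% in any replicate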
# Target sequence (Q9QR71 whole entry, looked up): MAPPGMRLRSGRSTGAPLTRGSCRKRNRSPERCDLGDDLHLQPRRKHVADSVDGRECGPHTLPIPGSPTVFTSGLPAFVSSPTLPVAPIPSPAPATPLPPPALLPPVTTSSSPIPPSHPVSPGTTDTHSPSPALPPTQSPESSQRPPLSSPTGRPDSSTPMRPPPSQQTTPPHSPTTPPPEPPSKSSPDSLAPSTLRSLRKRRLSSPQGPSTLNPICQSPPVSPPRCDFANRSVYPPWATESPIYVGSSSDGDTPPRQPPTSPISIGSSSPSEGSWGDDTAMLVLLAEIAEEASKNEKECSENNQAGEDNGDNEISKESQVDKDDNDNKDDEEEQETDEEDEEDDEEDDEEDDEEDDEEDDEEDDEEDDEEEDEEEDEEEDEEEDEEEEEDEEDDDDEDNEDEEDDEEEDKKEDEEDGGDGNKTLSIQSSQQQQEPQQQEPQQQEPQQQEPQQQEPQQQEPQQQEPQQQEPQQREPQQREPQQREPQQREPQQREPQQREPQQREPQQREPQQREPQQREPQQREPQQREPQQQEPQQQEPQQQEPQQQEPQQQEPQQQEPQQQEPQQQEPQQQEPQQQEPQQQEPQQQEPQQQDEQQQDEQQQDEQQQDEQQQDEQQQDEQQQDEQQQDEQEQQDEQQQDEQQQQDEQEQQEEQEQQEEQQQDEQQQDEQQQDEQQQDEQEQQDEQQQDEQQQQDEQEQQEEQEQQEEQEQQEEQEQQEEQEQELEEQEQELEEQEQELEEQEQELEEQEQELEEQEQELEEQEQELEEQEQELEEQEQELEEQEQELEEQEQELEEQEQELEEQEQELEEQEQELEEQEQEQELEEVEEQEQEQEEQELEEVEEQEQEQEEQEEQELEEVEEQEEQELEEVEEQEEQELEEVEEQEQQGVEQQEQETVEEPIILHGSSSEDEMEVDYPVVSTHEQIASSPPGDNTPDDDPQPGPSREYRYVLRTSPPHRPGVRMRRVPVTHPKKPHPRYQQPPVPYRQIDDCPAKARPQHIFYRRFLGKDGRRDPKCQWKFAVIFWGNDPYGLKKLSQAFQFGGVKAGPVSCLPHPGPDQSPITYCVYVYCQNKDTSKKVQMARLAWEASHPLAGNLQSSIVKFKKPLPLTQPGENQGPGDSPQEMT
# T cruzi inh: inhibitors of intracellular T. cruzi growth, primary screen, luminescence, NIH3T3 host cells; inhibition, % (test concentration not listed); T. cruzi beta-gal in NIH3T3, 90 h; hit rate 1.4% among 300,000;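 active = mean inhibition across valid replicates above about 55%, limit read from the data; inconclusive = mean below that limit but half or more replicates reach it; inactive = mean below it, under half of replicates reach it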;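 also: signal also drops with host cell toxicity which is not excluded here; 0% = plate median of DMSO wells and 100% = zero luminescence signal; higher percent means less beta-gal luminescence so fewer parasites; stock transfer was 50 nL into about 50 µL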
# Vif A3G: inhibitors of Vif binding to APOBEC3G peptide, primary screen, biochemical, TR-FRET, GST-Vif 1-94, biotin-A3G peptide, dose response retest (AID 1117319); TR-FRET GST-Vif / biotin-A3G peptide binding; higher % means a stronger effect; test concentration not given here; strong numbers were not always called active; one-dose inhibition, %; IC50 in µM for titrated hits; hit rate 0.57% among 260,000;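 active = above the screen mean plus three standard deviations and confirmed in dose response; inconclusive = results disagree or hit not tested in dose response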;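 also: Vif residues 1-94 fused to GST binding biotinylated APOBEC3G peptide 110-148; 0% = full assay without inhibitor and 100% = GST in place of GST-Vif; retest series ran down from 100 µM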
# Beta apoptosis: inhibitors of cytokine-induced beta cell apoptosis, primary screen, luminescence; INS-1E cytokine-induced death, ATP luminescence, 48 h; percent of positive-control rescue, neutral wells zero; hit rate 0.8% among 300,000; protection from apoptosis, % (test concentration not listed);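 active = all replicates at 75% or more, or half of them and the mean; inconclusive = half reach 75% but not the mean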;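 also: 0% = cytokine-treated negative control wells and 100% = positive control rescue; higher means more ATP so stronger rescue from cytokine killing; wells of about 40 µL received 100 nL stock; the first replicate is given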
# MLL AF4-AF9 inh: inhibitors of AF4 peptide binding to AF9, primary screen, biochemical, AlphaScreen, biotin-AF4 peptide, FLAG-AF9, single point. Protein AF-9 (Homo sapiens), P42568. hit rate 0.47% among 350,000. inhibition, % at 10 µM;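 active = every replicate reaching a set inhibition limit, whatever the replicate mean, cut at about 25% in these data; inconclusive = mean inhibition reaches that limit but some replicates miss it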;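 also: 0% = plate neutral control median and 100% = total signal loss; the record names both 10 and 1 µM as test concentration; the first replicate is given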
# A1 inh: caspase 3/7 activation in MEF A1-2A-BIM cells, primary screen, A1 inhibitor project, cell-based, luminescence, HTS. Caspase-Glo 3/7 luminescence, 3 h; percent of clofoctol response, vehicle zero. caspase activation, % (test concentration not listed). hit rate 0.066% among 330,000;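 active = over half of replicate activation scores above 10%, or exactly half above 10 with the replicate mean above 10; inconclusive = replicate mean below 10 yet half the replicates above 10; inactive = over half of replicates below 10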;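 also: wells of about 30 µL received 50 nL stock; many hits fall short of the cut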
# Numbers without * were called inactive; ? = inconclusive; / = no result given.
SMILES,Calb FLC,RanGTP-Impb inh,LANA-H2B inh,T cruzi inh,Vif A3G,Beta apoptosis,MLL AF4-AF9 inh,A1 inh
CN(C)CCCN(C(=O)c1ccc(S(=O)(=O)N2CCCCCC2)cc1)c1nc2c(F)cccc2s1,-1,0.7,3.1,33,/,-7,15,-0.8
COC(=O)C1NN=C(C(=O)c2ccc(Br)cc2)C1c1cccc(Br)c1 (stereo not drawn),9,?,-3.0,1,16%,-9,/,0.6
OCCCc1nc2ccccc2[nH]1,2,-1.4,2.0,2,-2%,-1,-2.6,0.0
Cc1ccc(CN2CCSc3ccc(C(=O)NCCCN4CCOCC4)cc32)cc1,4,4.5,-4.4,8,6%,10,11,?
CCOC(=O)c1cnc2c(C)cccc2c1Nc1cccc(C(=O)O)c1,-5,0.6,1.4,2,-2%,3,-4.6,0.7
COCCOC(=O)C1=C(N)OC2=C(C(=O)CCC2)C1c1cccnc1 (stereo not drawn),/,/,-5.4,/,0%,1,3.4,1.6
COc1cccc2cc(C(=O)N(C)C3CCN(C)CC3)c(=O)oc12,3,-1.0,-1.4,-9,4%,-5,/,0.4
O=C(CSCC(=O)N1CCN(c2ccccc2)CC1)Nc1nc(-c2ccc(Cl)s2)cs1,-6,0.3,0.3,9,3%,-6,7.2,0.3
Cc1ccc(S(=O)(=O)NCc2n[nH]c(=S)n2C)cc1,-3,?,-1.2,1,?,0,/,0.2
COc1ccc(/C=N/n2c(SC)nnc(C(C)(C)C)c2=O)cc1,-12,?,5.9,7,12%,-4,/,0.8
O=C(O)CC(NC(=O)C(F)(F)F)c1ccc2c(c1)OCO2 (stereo not drawn),0,5.3,-2.2,-12,-2%,-8,-1.0,-0.8
Cc1cccc(N2CCN(C(=O)c3ccnn3C)CC2)c1C,3,-0.5,-0.8,3,-4%,/,-1.2,0.1
CCC(C)[C@H](NC(=O)[C@H](Cc1ccccc1)n1c(=O)[nH]c2ccccc2c1=O)C(=O)NCC1CCC(C(=O)O)CC1 (stereo partly drawn),3,-6.2,4.3,-13,/,0,-2.0,1.1
NS(=O)(=O)c1ccc(N/N=C/c2ccccc2Br)cc1,-1,-0.5,1.7,2,-2%,-7,15,-0.4
CCc1ccc(NC(=O)COc2cccc(-n3cnnn3)c2)cc1,17,3.0,-3.5,10,/,-1,-4.6,0.9
CC(=O)c1ccc(NC(=O)C(Cc2ccccc2)n2cccc2)cc1 (stereo not drawn),2,4.5,6.8,-15,2%,-4,3.0,0.9
CC(C(=O)Nc1ncc([N+](=O)[O-])s1)N1C(=O)c2ccccc2S1(=O)=O (stereo not drawn),-4,-2.2,0.3,-6,-3%,2,1.5,1.0
COc1ccc(NC2CCCN(C(=O)c3cccc(N(C)C)c3)C2)cc1 (stereo not drawn),-3,-3.9,/,10,/,/,6.8,/
Cc1ccc(N=Cc2cc(C)n(C3CCCC3)c2C)cc1,-8,-1.5,1.2,14,7%,-3,/,0.5
CC(C)(C)NC(=O)CSc1nc(N)c(-c2ccccc2)c(=O)[nH]1,?,-0.1,0.7,-13,-4%,-1,-1.8,1.4
O=C(Nc1ccc(F)cc1)c1cc(S(=O)(=O)N2CCCCC2)cs1,-9,3.4,1.9,-49,1%,6,/,0.2
COc1cccc(OCc2cc(C(=O)N(C)Cc3nc4ccccc4[nH]3)no2)c1,-6,5.7,9.6,19,-1%,5,-5.5,-2.1
O=C(CN1C(=O)c2ccccc2C1=O)NCc1ccccn1,-1,3.6,-1.2,-2,0%,-6,/,0.3
CC(C)CC(=O)Nc1ccc(-c2cn3cccnc3n2)cc1,-19,-1.3,-0.7,-3,-1%,2,-1.0,0.3
Cc1ccc(OCC(=O)N2CCc3ccccc3C2)c(C)c1,-3,5.1,-1.6,21,/,/,0.9,-1.5
O=C1Nc2ccccc2C1Cc1ccccn1 (stereo not drawn),-4,0.5,6.4,-5,3%,-7,-1.2,0.4
O=S(=O)(NCc1ccccc1)c1ccc(Cl)c(S(=O)(=O)NCc2ccccc2)c1,3,0.0,-0.1,7,-8%,-8,/,0.9
COC(=O)/C=c1/sc2nc3ccccc3n2c1=O,-7,?,7.3,-2,-2%,-8,/,-3.5
CCOc1ccc(CN2C(=O)c3ccccc3C2=O)cc1C(=O)N1CCC(C(N)=O)CC1,-6,-0.9,-2.9,-6,2%,/,0.4,0.8
COc1ccc(-c2coc3cc(O[C@@H]4O[C@H](CO)[C@@H](O)[C@H](O)[C@H]4O)ccc3c2=O)cc1,/,/,0.2,/,/,2,0.4,-12
COc1cccc(Oc2ncnc(N)c2[N+](=O)[O-])c1,12,2.0,-3.8,-17,/,-2,4.2,-0.9
Cc1cc(=O)oc2cc(OCC(=O)N/N=C/c3ccccc3[N+](=O)[O-])ccc12,0,1.3,-0.4,-18,9%,-3,/,-0.5
O=C(Nc1nnc(-c2ccc(Cl)cc2)o1)c1nc2ccccc2s1,4,2.9,-1.8,1,-1%,2,-3.1,0.3
CCOC(=O)c1c(N2C(=O)C=CC2=O)sc(C)c1C,0,0.7,-3.9,18,11%,/,/,-0.9
O=C(Nc1ccccc1)c1ccc(-c2ccc([N+](=O)[O-])cc2)o1,-16,2.9,9.8,1,/,-1,-9.3,0.2
Cc1c(CC(=O)N[C@H](C(=O)O)C(C)C)c(=O)oc2cc3c(cc12)CCC(C)(C)O3,1,2.4,0.1,2,-4%,5,-2.9,1.6
CCN(CC(=O)NCc1cccs1)C(=O)c1cc(=O)[nH]c2ccccc12,/,/,0.4,/,/,2,0.5,-0.4
Cc1cc(OCc2cc(C(=O)NC3CCC3)no2)cc(C)c1Cl,-5,3.1,2.5,-8,/,1,/,-0.6
C/C(=N/O)c1cccc(N2Cc3ccccc3C2)c1,5,4.4,1.8,0,3%,1,1.3,-0.5
CCC(Sc1nc2ccccc2s1)C(=O)Nc1nnc(C)s1 (stereo not drawn),1,-3.8,0.1,6,-14%,-2,/,-0.7
O=C(c1cc2nc(-c3ccco3)cc(C(F)(F)F)n2n1)N1CCc2ccccc2C1,-2,4.6,/,22,25%,4,/,0.0
N#Cc1c(-c2cccs2)nc(SCc2ccc(Cl)cc2)[nH]c1=O,39,-3.2,/,-23,-133%,/,0.7,/
Cc1cccc(S(=O)(=O)Nc2ccc(-c3cn4ccccc4n3)cc2)c1,36,1.9,-0.2,4,-10%,-3,6.8,0.3
CC(=O)c1cccc(NC(=O)C(C)OC(=O)Cc2c[nH]c3ccccc23)c1 (stereo not drawn),-1,1.2,1.7,5,-2%,/,6.0,-0.5
CN(Cc1ccccc1)C(=O)c1nn2cccnc2c1Cl,4,-3.8,-1.6,-3,9%,-7,-0.7,1.0
Cc1cc(C)c(C)c(OCCn2ccnc2)c1,1,2.7,-0.6,-6,/,-2,1.8,-0.5
N/N=C(\c1ccccc1)c1cc(Cl)ccc1N,-3,-2.0,2.2,-6,/,-4,8.0,0.1
Cc1ccc(OCc2nc(-c3ccccc3)no2)c(C)c1,4,-2.4,2.6,-3,3%,2,/,-1.1

# Record cards, from the list above. Values in the order: Calb FLC	RanGTP-Impb inh	LANA-H2B inh	T cruzi inh	Vif A3G	Beta apoptosis	MLL AF4-AF9 inh	A1 inh
# Results for Cc1cccc(S(=O)(=O)Nc2ccc(-c3cn4ccccc4n3)cc2)c1 : 36	1.9	-0.2	4	-10%	-3	6.8	0.3
# Results for CCC(Sc1nc2ccccc2s1)C(=O)Nc1nnc(C)s1 (stereo not drawn) : 1	-3.8	0.1	6	-14%	-2	/	-0.7
# Results for O=C1Nc2ccccc2C1Cc1ccccn1 (stereo not drawn) : -4	0.5	6.4	-5	3%	-7	-1.2	0.4

# The listing picks up, repeating the 2 entries before the break.
SMILES,Calb FLC,RanGTP-Impb inh,LANA-H2B inh,T cruzi inh,Vif A3G,Beta apoptosis,MLL AF4-AF9 inh,A1 inh
N/N=C(\c1ccccc1)c1cc(Cl)ccc1N,-3,-2.0,2.2,-6,/,-4,8.0,0.1
Cc1ccc(OCc2nc(-c3ccccc3)no2)c(C)c1,4,-2.4,2.6,-3,3%,2,/,-1.1
COc1ccc(Nc2oc(COc3ccccc3F)nc2C#N)cc1,7,?,2.3,-6,4%,3,9.4,-0.4
COc1cccc(-c2nc(CS(=O)(=O)CC(=O)NCCN3CCOCC3)c(C)o2)c1,-1,-3.2,2.3,-7,/,-3,-0.9,0.3
Cn1c(CNC(=O)C2CCCCC2)cc2ccccc21,-7,4.4,5.6,-7,/,/,0.7,1.5
Oc1ccc(-c2nc(=S)[nH][nH]2)cc1,7,0.8,-3.3,/,6%,-3,/,-0.8
O=C(CCC(=O)OCC(=O)c1ccc([N+](=O)[O-])cc1)Nc1ccccc1Cl,1,0.6,1.2,-7,/,0,/,0.1
O=C(NCCCN1CCOCC1)c1cccc(S(=O)(=O)NCc2ccccc2)c1,-9,0.1,-2.8,-6,/,3,7.2,0.1
CCCCCCOc1ccc(C(CC(N)=O)C(=O)O)cc1 (stereo not drawn),-5,5.3,2.7,-1,9%,-7,-2.0,-0.2
COc1ccc(/C=N/NC(=O)c2cccc(Br)c2)cc1Cn1cc(Cl)cn1,4,2.2,-2.1,3,6%,1,/,0.0
O=C(NC(=S)Nc1ccc(Cl)c(C(=O)O)c1)c1cccc(COc2ccccc2)c1,22,?,-1.2,1,/,-4,-5.5,-3.0
CCOC(=O)c1cc2occc2n1CC(=O)N1CCN(C(=O)c2ccco2)CC1,-33,-1.6,1.1,-7,-1%,-4,-2.7,0.1
O=C(CCc1ccccc1)N1CCN(c2ccc(F)cc2)CC1,-7,-3.1,4.5,5,-8%,-3,-11,0.2
Cn1c(SCC(=O)N2CCOCC2)nnc1-c1ccc(Cl)cc1Cl,3,1.4,4.6,1,4%,-2,/,1.1
CCC1OC23CCCCC2C(C#N)(C(=N)O3)C1(C#N)C#N (stereo not drawn),-1,27*,14,-18,?,3,/,0.3
O=C(COc1ccc2ccccc2c1)NNC(=O)c1cnccn1,-1,0.1,8.9,-10,1%,-14,/,0.8
CC1Cc2cc(/C(O)=C3/C(=O)C(=O)N(CCN4CCOCC4)C3c3ccc([N+](=O)[O-])cc3)ccc2O1 (stereo not drawn),2,2.0,-2.7,-3,/,0,-1.9,1.2
COc1ccccc1CC(NC(C)=O)C(=O)NC1CCN(C(=O)c2ccc([N+](=O)[O-])cc2)CC1 (stereo not drawn),-24,-2.6,3.7,-7,/,-2,-1.4,0.0
CCC(CC)C(=O)c1c[nH]c(C(=O)NCc2cccnc2)c1,-5,3.7,-3.8,-18,2%,-1,-1.2,0.5

# Single entries from the entries so far:
# Entry of `CCC1OC23CCCCC2C(C#N)(C(=N)O3)C1(C#N)C#N` (stereo not drawn) in Beta apoptosis: 3
# Entry of `Cc1ccc(OCc2nc(-c3ccccc3)no2)c(C)c1` in A1 inh: -1.1
